# High-throughput results (PubChem BioAssay)
# RE007 growth inh – qHTS Assay for Inhibitors of the HIV-1 protein Vpr | S. pombe RE007 Vpr strain, BacTiter-Glo ATP luminescence, 24 h; control for the full effect not named in the record | AID 651644, 2012 | actives 0.21% (n = 360,000) | Potency, µM (titrated, usually from 92.2 µM), without a hit: top-dose activity change, negative = less growth; active = well fitted falling curve with a large enough effect; inconclusive = small, poorly fitted or top-dose-only effect; inactive = no such curve, though single readings can be large or run the other way;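 further: on the % scale 0 is the no-effect control and ±100 the full control effect; nearly all actives have a fitted effect of over 50% in size; the assay follows cell death caused by Vpr and the record does not say whether a fall means rescue or toxicity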
#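 Fission yeast strain RE007, carrying one chromosomally integrated HIV-1 vpr copy, was seeded at OD 0.01 in PMG+AL medium with 23 nL pinned compound. After 24 h at 30 °C and 99% humidity, viability was read by BacTiter-Glo luminescence.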
# StopGo reporter – High Throughput Screening for Foot and Mouth Disease Virus Antivirals | actives 1.2% (n = 410,000) | Potency, µM (highest dose often 57.9 µM), without a hit: at the top dose signal change, negative = less light | human cells with a luciferase reporter of 2A StopGo recoding; control for the full effect not named in the record | AID 1159524, 2015; active = well fitted falling curve with a large enough effect; inconclusive = small, poorly fitted or top-dose-only effect; inactive = no such curve, though single readings can be large or run the other way; tested in HEK293T cells; further: on the % scale 0 is the no-effect control and ±100 the full control effect; nearly all actives have a fitted effect of over 45% in size; luciferase light after 4 h
# Cruzain inh Det – qHTS Assay for Promiscuous and Specific Inhibitors of Cruzain (with detergent) | actives 0.43% (n = 200,000) | Potency, µM, inactives show max response, negative = inhibition, actives largely listed as inhibitors | AID 1478, 2009 | Cruzipain (Trypanosoma cruzi), P25779 | purified cruzain, Z-FR-AMC fluorescence, 0.01% Triton;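 further: plate controls were neutral wells for no effect and buffer without enzyme for full effect; nearly all actives have a fitted effect of over 40% in size; top concentration of the series not given in the record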
# Target sequence (P25779 123-467 limits assumed): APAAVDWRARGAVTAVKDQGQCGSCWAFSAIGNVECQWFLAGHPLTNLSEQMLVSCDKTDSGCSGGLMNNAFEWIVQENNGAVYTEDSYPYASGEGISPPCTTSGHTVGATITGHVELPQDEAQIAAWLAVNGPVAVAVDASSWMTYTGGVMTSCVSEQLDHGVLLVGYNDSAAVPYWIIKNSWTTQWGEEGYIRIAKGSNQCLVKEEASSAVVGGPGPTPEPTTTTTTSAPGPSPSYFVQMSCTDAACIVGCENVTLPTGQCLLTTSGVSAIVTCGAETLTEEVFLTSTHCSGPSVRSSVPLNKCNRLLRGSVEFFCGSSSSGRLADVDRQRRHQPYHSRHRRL
#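 15 min RT preincubation of 1.5 nM cruzain with compound, then 2 uM Z-FR-AMC added; kinetic AMC fluorescence, 60 s delta. Triton X-100 0.01%, pH 5.5.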
# NS1 function inh – qHTS Assay for Inhibitors of Influenza NS1 Protein Function; actives 0.4% (n = 270,000); S. cerevisiae slowed by influenza A NS1, growth recovery by OD600; Potency, µM (titrated, usually from 46.1 µM), without a hit: at the top dose activity, positive = more growth; active means well fitted rising curve with a large enough effect; inconclusive means small, poorly fitted or top-dose-only effect; inactive means no such curve, though single readings can be large or run the other way; further: nearly all actives have a fitted effect of over 50% in size
#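 OD600 was taken as the measure of yeast growth restored by compound in an NS1-expressing S. cerevisiae strain. Cells had been washed out of glucose medium and diluted 1:100 into galactose -URA medium, pH 6.0.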
# Marburg entry inh – qHTS for inhibitors of binding or entry into cells for Marburg Virus; actives 1.8% (n = 300,000); Marburg virus pseudotyped entry inhibition, cell reporter; control for the full effect not named in the record; about a third of the inactives were read at about 46 µM; Potency, µM (series often up to 37.8 µM), for inactives: top-dose activity change, negative = inhibition, most hits filed as inhibitors; active = well fitted inhibition curve with a large enough effect; inconclusive = small, poorly fitted or top-dose-only effect, or effect the other way; inactive = flat fitted curve, though single readings scatter; tested in HEK293 cells; about a fifth of its hits are not listed in these tables; further: on the % scale 0 is the no-effect control and ±100 the full control effect; luciferase read-out
# SARS PLP yeast – qHTS of Yeast-based Assay for SARS-CoV PLP. actives 0.19% (n = 330,000). Potency, µM (titrated, usually from 32.9 µM), inactives show at the highest dose activity, positive = growth rescue. S. cerevisiae expressing SARS-CoV PLpro, growth rescue; control for the full effect not named in the record. AID 485353, 2010; active means well fitted rising curve with a large enough effect; inconclusive means small, poorly fitted or top-dose-only effect; inactive means no such curve, though single readings can be large or run the other way; further: 0% is about no effect; nearly all actives have a fitted effect of over 55% in size; growth read by luminescence after 48 h
# Cruzain inh noDet – qHTS Assay for Promiscuous and Specific Inhibitors of Cruzain (without detergent); Cruzipain (Trypanosoma cruzi), P25779; purified cruzain, Z-FR-AMC fluorescence, no detergent; Potency, µM, without a hit: max response, negative = inhibition, hits mostly inhibitors; actives 2.3% (n = 200,000);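 further: plate controls were enzyme without inhibitor for no effect and buffer without enzyme for full effect; nearly all actives have a fitted effect of over 40% in size; top concentration of the series not given in the record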
#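 Detergent-free condition (0.00005% Triton X-100) in acetate buffer pH 5.5 with DTT. 1.5 nM enzyme and compound were pre-mixed 15 min, then 2 uM Z-FR-AMC substrate added; reaction progress from fluorescence change between first and third reads (60 s).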
# LASV entry inh – qHTS for Inhibitors of binding or entry into cells for Lassa Virus | Lassa virus pseudotype entry inhibition, cell reporter; control for the full effect not named in the record | Potency, µM (top dose mostly 37.9 µM), for the others: at the highest dose activity change, negative = inhibition, usual class: inhibitors | actives 1.2% (n = 300,000); active means well fitted inhibition curve with a large enough effect; inconclusive means small, poorly fitted or top-dose-only effect, or effect the other way; inactive means flat fitted curve, though single readings scatter; tested in HEK293 cells; further: on the % scale 0 is the no-effect control and ±100 the full control effect; nearly all actives have a fitted effect of over 50% in size; luciferase read-out
# * marks the source's active call; other numbers are inactive results; ? = inconclusive; nt = no result given; & = joins results of further samples; ! = not active in a repeat; [ ] = remark or other dose. Unless noted, the call rests on the fitted dose curve; in most records, active means well fitted curve in the direction sought with a large enough effect; inconclusive means small, poorly fitted or top-dose-only effect, or another doubt; inactive means no such curve, though single readings can be large; an effect the other way counts as inactive or inconclusive. Potency means the concentration at half of the fitted maximal effect. Not a hit list; any-hit rate near 4.7%.
# Screens in order – RE007 growth inh	StopGo reporter	Cruzain inh Det	NS1 function inh	Marburg entry inh	SARS PLP yeast	Cruzain inh noDet	LASV entry inh
CCSc1ncc(Cl)c(C(=O)Nc2sc3c(c2C(=O)NCCCOC)CCCC3)n1
    nt	-14.9%	-0.3%	nt	1.6%[46.1 µM]	nt	-4.1%	6.7%[46.1 µM]
CC1CCN(C(=O)CSc2ccc(-c3ccc(F)cc3)nn2)CC1
    -13.2%	?	6.7%	-57.1%	2.4%	-3.2%	-0.4%	?
CCCCn1c(N)c(N(CC(C)C)C(=O)CSCc2c(C)noc2C)c(=O)[nH]c1=O
    -1.8%	-11.7%	nt	nt	?	-6.1%	nt	-23.7%
COc1ccc(OCc2cc(C(=O)N3CCN(C4CCCC4)CC3)no2)c(Cl)c1
    5.3%	0.1%	nt	-19.4%	5.8%	-4.1%	nt	12.7%
CCn1cc(C(=O)NCCc2ccccc2)c(=O)c2cc(S(=O)(=O)N3CCOCC3)ccc21
    nt	-1.5%	-1.8%	nt	6.0%[46.1 µM]	nt	0.2%	15.3%[46.1 µM]
CCOCCCNCc1ccc(OC)cc1
    -3.2%	13.5%	7.8%	8.8%	0.0%	-15.9%	4.4%	10.1%
O=S(=O)(c1ccc(Cl)cc1)N1CCN(Cc2ccncc2)CC1
    -1.1%	-13.9%	nt	-11.9%	0.5%[46.1 µM]	-4.2%	nt	5.4%[46.1 µM]
CC(C)(C)OC(=O)N[C@@H](Cc1ccccc1)C(=O)N1CCC(C(=O)N[C@@H](CCC(N)=O)C(=O)O)CC1
    1.2%	-9.3%	nt	-1.1%	-0.8%	0.7%	nt	nt
Cc1cccc(OCCn2c(-c3ccc(Cl)cc3)nc3ccccc3c2=O)c1
    nt	1.1%	-0.5%	nt	-0.9%[46.1 µM]	nt	-3.6%	1.2%[46.1 µM]
O=C(CSc1nnc(-c2c[nH]c3ccccc23)o1)c1ccccc1
    0.5%	nt	-2.9%	-2.1%	?	0.8%	?	-8.2%

# The listing continues.
# Screens in order – RE007 growth inh	StopGo reporter	Cruzain inh Det	NS1 function inh	Marburg entry inh	SARS PLP yeast	Cruzain inh noDet	LASV entry inh
O=C(O)c1cnc(-c2ccccc2)nc1Oc1ccccc1
    -2.8%	-4.0%	nt	nt	8.3%[46.1 µM]	-0.7%	nt	9.4%
NNC(=O)CS(=O)(=O)c1ccc(Cl)cc1
    0.2%	-6.3%	nt	9.0%	nt	2.3%	nt	nt
CC(C)[C@H](CO)Nc1nc(Nc2ccc(Cl)c(C(=O)O)c2)c2ncn(C(C)C)c2n1
    3.7%	-21.9%	nt	0.7%	nt	-1.6%	nt	nt
CCCN(CC1CC1)c1nc(C)nc(Nc2c(Cl)cc(Cl)cc2Cl)c1Cl
    0.5%[18.4 µM]	-15.2%&-12.4%	-1.7%&-4.0%	-17.0%	?	nt	25.1µM*!	?
COc1cccc(/C=N\NC(=O)c2sc(N)nc2C)c1OC
    4.5%	38.1%[activator]	-3.7%	4.4%	-3.6%	4.7%	1.0%	11.1%
CC(=O)Nc1c(C(=O)N2CCN(c3ccccn3)CC2)cnn1-c1ccc(C)cc1
    -9.8%	-12.7%	-3.2%	6.2%	?	8.4%	0.1%	-3.0%
CCC(C)(c1nnnn1-c1c(C)cccc1C)N(N=O)c1ccccc1Cl (stereo unspecified)
    -1.4%	0.0%	-2.9%	-8.4%	?	-11.3%	-5.0%	?
COc1ccc(NC(=O)CN(c2ccc(C)cc2)S(C)(=O)=O)c(OC)c1
    26.7%	7.6%	3.3%	-4.4%	-3.3%	9.7%	-5.4%	-18.0%
COc1ccccc1N1CCN(C(=O)c2nn(-c3ccc(C)cc3)c(=O)n(C)c2=O)CC1
    nt	5.8%	-1.6%	nt	nt	nt	?	-20.4%[46.1 µM]
NC(=O)Cn1c(S(=O)(=O)Cc2ccccc2)nc2ccccc21
    -5.3%	-8.4%	nt	1.0%	4.7%	nt	nt	-14.4%

# Single records, as listed above. Values in the order: RE007 growth inh, StopGo reporter, Cruzain inh Det, NS1 function inh, Marburg entry inh, SARS PLP yeast, Cruzain inh noDet, LASV entry inh
# O=C(O)c1cnc(-c2ccccc2)nc1Oc1ccccc1 reads -2.8%, -4.0%, nt, nt, 8.3%[46.1 µM], -0.7%, nt, 9.4%
# NNC(=O)CS(=O)(=O)c1ccc(Cl)cc1 reads 0.2%, -6.3%, nt, 9.0%, nt, 2.3%, nt, nt

# Further compounds.
# Screens in order – RE007 growth inh	StopGo reporter	Cruzain inh Det	NS1 function inh	Marburg entry inh	SARS PLP yeast	Cruzain inh noDet	LASV entry inh
Cc1oc(-c2ccccc2)nc1C(=O)OCC(=O)NC(=O)NCC(C)C
    -12.0%	15.5%	1.0%	-9.3%	?	-2.7%	0.3%	13.6%
O=C(c1cccc(S(=O)(=O)NCCOc2ccccc2)c1)N1CCN(c2ncccn2)CC1
    7.7%	?	0.1%	-15.2%	-19.4%	8.8%	22.4%	-18.0%
O=C(Nc1cccc(F)c1)c1ccc(CSc2ccccc2)o1
    -13.6%	20.7%	-7.3%	-65.0%	7.31µM*	-64.7%	-7.1%	5.17µM*
Cc1ccc2c(c1)N(C(=O)CCC(=O)N1CCC(C(N)=O)CC1)CCO2
    1.2%	4.7%	nt	13.7%	nt	-4.0%	nt	nt
CCOC(=O)C1CCN(C(=O)COC(=O)c2c(C)c(CC)nc3ccccc23)CC1
    7.8%	?	nt	nt	?	-9.6%	nt	?
CCSc1nnc(NC(=O)C2CC=CCC2C(=O)O)s1 (stereo unspecified)
    5.2%	12.4%	7.0%	-9.2%	27.3%	0.1%	10.5%	-11.2%
Cc1nn(C)c2c1c(-c1ccccc1)cc(=O)n2Cc1ccccc1C#N
    nt	0.0%	-3.0%	nt	nt	nt	12.0%	5.4%[46.1 µM]
O=C(c1cccc(F)c1)N(Cc1nc2ccccc2c(=O)[nH]1)C1CCCC1
    2.5%	-1.0%	nt	-0.7%	nt	0.4%	nt	nt
COc1ccc(-c2nc(CS(=O)(=O)CC(=O)Nc3ccc(Cl)cc3)c(C)o2)cc1
    2.7%	20.7%	-8.5%	-31.1%	-0.8%	-5.3%	10.6%	nt
Cc1ccc(CN2CCC(CO)(CC3CCCCO3)CC2)o1 (stereo unspecified)
    -9.8%	6.7%	nt	6.7%	12.4%[46.1 µM]	0.5%	nt	5.5%

# Later entries
# Screens in order – RE007 growth inh	StopGo reporter	Cruzain inh Det	NS1 function inh	Marburg entry inh	SARS PLP yeast	Cruzain inh noDet	LASV entry inh
CC(=O)c1csc(Nc2ccccc2Cl)n1
    28.3%	60.0%[activator]	nt	-30.9%	9.1%[46.1 µM]	-1.9%	nt	?
CN(Cc1ccccc1)C(=O)COC(=O)c1cc(=O)c2ccccc2o1
    5.7%	-5.1%	nt	nt	-4.4%	-0.3%	nt	3.3%
Cc1ccc(S(=O)(=O)N2CCN(C(=O)c3cc(S(=O)(=O)N(C)C)ccc3N3CCCC3)CC2)cc1
    1.4%	3.9%	nt	nt	15.1%[46.1 µM]	-8.2%	nt	-7.8%
O=C1CC(N2CCC(C(=O)N3CCCCC3)CC2)C(=O)N1 (stereo unspecified)
    -21.7%	-8.9%	6.5%	-9.2%	?	0.0%	7.8%	9.8%
CCNc1ccc(S(=O)(=O)N(C)C)cc1NCC(=O)Nc1ccccc1F
    -14.3%	28.7%	-5.4%	-5.0%	-2.2%	0.9%	0.9%	-12.3%
O=C(N/C(=C/c1ccccc1Cl)C(=O)N1CCCCC1)c1ccco1
    13.2%	12.0%	nt	nt	-28.9%	nt	nt	1.4%
NS(=O)(=O)c1nc[nH]c1[N+](=O)[O-]
    -0.3%	0.0%	nt	nt	6.9%	nt	nt	-6.4%
Cc1c(Cc2ccccc2)sc(NC(=O)Cc2ccccc2)c1C(N)=O
    -12.1%	-27.5%	nt	nt	9.5%	nt	nt	-22.9%
COc1ccccc1-n1c(SCC(=O)N2CCCC2)nc2cccnc21
    -1.6%	-18.1%	5.8%	2µM*	-6.4%[46.1 µM]	0.9%	2.8%	8.8%
N#Cc1nc(-c2ccccc2Cl)oc1N1CCN(C(=O)c2ccco2)CC1
    7.4%	-7.9%	nt	-2.4%	nt	-0.7%	nt	nt

# Going on with the list.
# Screens in order – RE007 growth inh	StopGo reporter	Cruzain inh Det	NS1 function inh	Marburg entry inh	SARS PLP yeast	Cruzain inh noDet	LASV entry inh
CCOc1ccc(CCNC(=O)Nc2ccccc2)cc1OCC
    23.0%	-20.3%	nt	-4.0%	nt	0.7%	nt	nt
CNCc1c(OCc2ccccc2F)ccc2ccccc12
    -13.9%	-19.7%	nt	-12.9%	?	-0.3%	nt	?
CCS(=O)(=O)Nc1ccc2c(c1)N(C(C)=O)c1ccccc1CC2
    -21.5%	-4.8%	0.7%	5.8%	24.2%	-1.5%	-9.1%	-18.5%
O=C(O)c1ccc(Cl)c(S(=O)(=O)Nc2cccc(C(=O)Nc3cccc(C(F)(F)F)c3)c2)c1
    -14.0%	-5.7%	nt	nt	-12.2%[46.1 µM]	0.2%	nt	11.3%
CCOC(=O)CN=C/C(C(=O)Nc1nccs1)=C(/C)O
    -15.7%	1.0%	nt	11.8%	-3.5%[46.1 µM]	0.2%	nt	-5.8%
COc1ccccc1C(=O)NCC(c1cccnc1)N1CCc2ccccc2C1 (stereo unspecified)
    nt	?	-0.8%	nt	nt	nt	1.3%	5.9%[46.1 µM]
COc1ccc(CNc2nc3nc(-c4ccccc4)cc(=O)n3[nH]2)cc1OC
    0.0%	-8.3%	3.4%	-31.1%	1.1%[46.1 µM]	4.1%	2.0%	1.8%
O=C(c1cc(COc2cccc3cnccc23)on1)N1CCC(c2ccccc2Cl)C1 (stereo unspecified)
    -2.0%	?	nt	-2.2%	nt	-10.1%	nt	nt
